# High-throughput results: PubChem, Johns Hopkins Ion Channel Center
# KCNQ2 block = KCNQ2 potassium channel inhibitors, primary screen, cell-based, CHO-K1, FluxOR thallium flux, B-score (AID 2156); hit rate 1.1% among 310,000; B-score at 10 µM; 20 min; stronger effect = lower value; only compounds with negative scores are shown here; some inactives read as strong as hits; Potassium voltage-gated channel subfamily KQT member 2 (Rattus norvegicus), O88943;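 active = fluorescence ratio B-score at most minus 3 library SDs, with starting brightness B-score within 2 library SDs, cut at about -5.5 in these data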
# Target sequence (O88943 whole entry, looked up): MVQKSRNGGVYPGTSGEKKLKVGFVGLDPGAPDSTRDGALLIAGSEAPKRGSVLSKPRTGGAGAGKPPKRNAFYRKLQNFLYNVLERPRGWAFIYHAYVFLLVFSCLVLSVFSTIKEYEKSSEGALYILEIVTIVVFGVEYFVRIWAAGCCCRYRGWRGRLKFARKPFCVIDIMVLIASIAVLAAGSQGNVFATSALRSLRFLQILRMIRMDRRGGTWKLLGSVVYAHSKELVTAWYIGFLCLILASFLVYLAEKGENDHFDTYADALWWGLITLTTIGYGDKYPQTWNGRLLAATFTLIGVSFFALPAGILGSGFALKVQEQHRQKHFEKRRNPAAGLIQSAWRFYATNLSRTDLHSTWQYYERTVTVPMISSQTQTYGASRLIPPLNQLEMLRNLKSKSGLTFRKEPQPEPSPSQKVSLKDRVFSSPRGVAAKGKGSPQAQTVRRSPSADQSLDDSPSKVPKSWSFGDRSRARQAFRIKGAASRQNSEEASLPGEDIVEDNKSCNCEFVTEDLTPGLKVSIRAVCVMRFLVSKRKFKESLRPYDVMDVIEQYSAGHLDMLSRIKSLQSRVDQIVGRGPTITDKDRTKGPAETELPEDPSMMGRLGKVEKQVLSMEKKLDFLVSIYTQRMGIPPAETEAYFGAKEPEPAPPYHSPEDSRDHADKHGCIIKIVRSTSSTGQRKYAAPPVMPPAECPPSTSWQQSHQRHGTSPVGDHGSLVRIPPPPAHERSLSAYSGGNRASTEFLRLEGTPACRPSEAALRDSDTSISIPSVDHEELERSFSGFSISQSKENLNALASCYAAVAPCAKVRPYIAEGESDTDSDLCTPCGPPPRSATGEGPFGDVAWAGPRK
# KCNQ2 block baseline = recorded beside KCNQ2 block, whose call it bears; B-score; measured here: initial fluorescence intensity artifact check;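 brightness before thallium and not channel activity; 0 = typical well and far values either way flag optical interference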
# The depositor's hits bear a star; i = inactive. The list is partial. The share of hits here may be higher or lower than overall.
SMILES,KCNQ2 block,KCNQ2 block baseline
COc1ccccc1C1CCN(Cc2cccc(C(=O)N3CCC(O)CC3)c2)CC1,i,2.5
Cc1ccc2c(c1)N(Cc1cccc(F)c1)C(=O)C(C)O2 (stereo not given),i,2.5
CC1Cc2ccccc2N1C(=O)COC(=O)c1ccc(O)cc1 (stereo not given),i,0.62
c1ccc(-c2ccccc2-c2nc(-c3cccnc3)no2)cc1,i,2.7
CN1CCN(CCC(=O)N/N=C/c2ccccn2)CC1,i,0.05
CC(CC(=O)O)Nc1ccccc1O (stereo not given),i,-0.44
O=C1NCCN(Cc2cccc(Oc3ccccc3)c2)C1CC(=O)N1CCCCO1 (stereo not given),i,-1.7
CCOCCCNC(=O)C1CCN(Cc2ccc(OCc3ccccc3)c(OC)c2)CC1,i,-1.8
CC(=O)c1ccc(N=C2SCCCN2C(=O)C2CCCCC2)cc1,i,-1.6
Cc1nn(-c2ncc(C(F)(F)F)cc2Cl)c(=O)n1-c1ccccc1,i,1.2
Cc1cc(C)nc(Nc2n[nH]c(-c3cccc4ccccc34)n2)n1,i,1.3
Cc1cccc(C)c1N1CC(=O)N(c2c(C)cccc2C)CC1=O,i,-0.56
O=C(NCCCN1CCOCC1)c1ccc2c(c1)N(Cc1ccccc1F)C(=O)c1ccccc1S2=O (stereo not given),i,-0.41
COc1cc(C2C(C(=O)c3ccc(C)o3)=C(O)C(=O)N2Cc2ccccc2)ccc1O (stereo not given),i,-0.04
CC(C)[C@H](NC(=O)C1CCN(S(=O)(=O)c2ccc(F)cc2)CC1)C(=O)N1CCCCCC1,i,0.18
CC(=O)N(Cc1cccs1)Cc1cc2ccc(C)c(C)c2nc1Cl,i,3.7
O=C(CN1C(=O)c2ccccc2S1(=O)=O)NCc1cccs1,i,0.52
CN1CCN(c2oc(-c3ccco3)nc2S(=O)(=O)c2ccccc2)CC1,i,0.64
CCOc1ccc(-c2cccc(NS(=O)(=O)c3cc([N+](=O)[O-])ccc3C)c2)nn1,i,-1.3
CC1Cc2ccccc2N1CC(=O)Nc1ccc(Cl)c(S(=O)(=O)N(C)C)c1 (stereo not given),i,0.89
CC(C)CN(CC(C)C)C(=O)C12CCC(C)(C(=O)C1)C2(C)C (stereo not given),i,0.32
CCOc1ccc(C(O)c2nccn2Cc2ccccc2)cc1 (stereo not given),i,-2
O=C(C[N+]1(CC#Cc2ccccc2)CCCCC1)c1ccccc1,i,-0.92
Cc1ccc(OCC(=O)Nc2ccc3c(c2)nc(CCN2CCN(C)CC2)n3C)cc1,i,0.69
COc1ccc(NC(=O)C2CCN(C(=O)NCc3ccccc3)CC2)cc1,i,-0.09
Cc1cc(C(=O)CN(Cc2ccc(F)cc2)S(=O)(=O)c2ccc3c(c2)OCCO3)c(C)n1C,i,-0.79
CC(C)COC(=O)/C(C#N)=C/c1cn(Cc2ccccc2)c2ccccc12,i,-1.5
O=C(CSc1nnc2c(Cl)cc(C(F)(F)F)cn12)NCc1ccc(F)cc1,i,2.7
COc1ccc(NC(=O)Nc2cccc([N+](=O)[O-])c2)cc1Cl,i,-0.21
CC1(C)Cc2ccccc2C2=NNC(=O)C2=N1,i,1.4
Cc1cc2c(c(SCC(=O)Nc3ccc(C)c(C)c3)n1)C(=O)OC2,i,2.7
CN(C)c1ccnc(N(Cc2ccccc2)Cc2ccccc2)c1C#N,-7.2*,1.7*
COC(=O)C1=CN(Cc2ccc(OC)cc2)C=C(C(=O)OC)C1c1ccc(O)c(OC)c1,i,2
O=C(Nc1nnc(-c2ccc3c(c2)OCCO3)o1)c1ccc(Cc2ccccc2)cc1,i,-0.07
Cc1onc(-c2c(Cl)cccc2Cl)c1C(=O)Nc1ccc2c(c1)OCO2,i,-0.22
CCOC(=O)[C@H](CCc1ccccc1)N[C@@H](C)C(=O)N1CCC[C@H]1C(=O)O,i,-0.65
CC1(C(=O)Oc2ccccc2)Cc2ccccc2C(=O)O1 (stereo not given),i,-2.2
O=C(NNC(=O)c1nn(-c2ccc(F)cc2)ccc1=O)c1ccc(Cl)cc1,i,1.1
O=C1CCCC(O)=C1C1C2=C(CCCC2=O)Oc2ccccc21 (stereo not given),i,-0.11
CCCCN(c1ccccc1)S(=O)(=O)N(C)C,i,0.71
CCc1ccccc1NC(=O)CCS(=O)(=O)c1ccc(OC)cc1,i,-1
Cc1ccccc1CN1CCNC(=O)C1CC(=O)N(C)CCC1CCOCC1 (stereo not given),i,-1.7
CC(C)c1nnc(NC(=O)C2CCN(c3nc4ccccc4s3)CC2)s1,i,0.08
CC(=O)Nc1c(O)n(C)c2ccccc12,i,1.3
COC(=O)C1=CN(Cc2ccccc2)C=C(C(=O)OC)C1c1cc(F)ccc1F,i,-1.5
O=S(=O)(Nc1cc(Sc2cccc3cccnc23)c(O)c2ccccc12)c1ccc(F)cc1,i,0.61
O=C(NCCCCc1ccccc1)C12CN(Cc3ccccc3)CC1C(c1cccc([N+](=O)[O-])c1)=NO2 (stereo not given),i,1.8
Cc1ccc(-n2nc(CC#N)c(C#N)c2N)cc1,i,0.16
Cn1cccc1C(=O)NCC(c1ccc(F)cc1)N1CCOCC1 (stereo not given),i,-0.08
CCOC(=O)c1cc(C#N)c(SCC(=O)c2cc(C#N)c(SC)nc2C)nc1C,i,0.92
O=C(COc1ccc([N+](=O)[O-])cc1)N(Cc1cccs1)C1CCS(=O)(=O)C1 (stereo not given),i,-1.6
COc1ccc(S(=O)(=O)N2CCCC(C(=O)N3CCN(C)CC3)C2)cc1Cl (stereo not given),i,1.8
CCOC(=O)c1ccc(N(C(=O)c2ccco2)C(C(=O)NC2CCCC2)c2ccncc2)cc1 (stereo not given),i,1.6
COc1ccc2c(Cl)c(C(=O)NN3CCN(C)CC3)sc2c1,i,1.7
COc1ccc(N2CCN(C(=O)c3oc4ccccc4c3NC(=O)Cc3cccc(OC)c3)CC2)cc1,-5.8*,-1.6*
COc1ccc(/C=C(\C#N)C(=O)OCC(=O)Nc2ccc(-c3nc4ccc(C)cc4s3)cc2)cc1,i,0.16
O=C(Nc1cccc2ncccc12)c1ccccc1[N+](=O)[O-],i,0.82
CCS(=O)(=O)CCSc1nc(C)cc(C)c1C#N,i,-1.8
CCNC(=O)Oc1ccc(-c2csnn2)cc1,i,0.48
Clc1cccc(Cl)c1/C=C/c1nc2ccccc2[nH]1,-8.7*,1.1*

# Continuation.
SMILES,KCNQ2 block,KCNQ2 block baseline
CCCCCCn1c(SCC(=O)c2c(N)n(C)c(=O)n(C)c2=O)nc2ccccc21,i,-0.03
CCOC(=O)C1CCCN(S(=O)(=O)CCNC(=O)c2cccc(OC)c2)C1 (stereo not given),i,-0.79
C[C@H](NC(=O)Cc1cccc2ccccc12)C(=O)N1CCCN(C)CC1,i,-1.7
CC(C)SCCCOc1ccc(C(C)(C)C)cc1,-5.8*,-2*
Cc1ccc(NC(=O)CS(=O)CC(=O)NCCCN(C)c2ccccc2)cc1 (stereo not given),i,-0.31
COc1ccccc1N1CCN(C(=O)CSc2ncnc3scc(-c4ccccc4)c23)CC1,i,1.9
CC(=O)NC(c1cccc([N+](=O)[O-])c1)c1ccc2cccnc2c1O (stereo not given),i,1.1
CCOC(=O)Cn1cc(Cl)cc(C(=O)Nc2ccccc2)c1=O,i,-1
CCC(C)C1NC(=S)N(C2CCCCC2)C1=O (stereo not given),i,2.4
CC(=O)c1cccc(N=C2NC(=O)C(CO)(CO)S2)c1,i,0.96
CCOc1ccc(N(CC(=O)Nc2ccccc2C(=O)N2CCCC2)S(C)(=O)=O)cc1,i,-0.35
CCN(CC(=O)Nc1c(F)cccc1F)C(=O)CCNC(=O)c1ccccc1OC,i,-0.37
COC(=O)c1sccc1-c1ccc(C(=O)Nc2ccccc2)o1,i,0.35
COc1ccc(N2CCN(C(=O)CSc3ncnc4scc(-c5ccc(C)cc5)c34)CC2)cc1,-5.6*,-0.02*
O=C(COc1cc(O)c2c(=O)cc(-c3ccccc3)oc2c1)c1ccccc1,-5.9*,-0.24*
Cc1cc(C2=NNC(=NCc3ccccc3)SC2)c(C)n1-c1c(C)n(C)n(-c2ccccc2)c1=O,i,1.7
C=C[C@H]1[C@H](OC2OC(CO)C(O)C(O)C2O)OC=C(C(=O)OC)[C@H]1C[C@H]1CC(=O)C[C@H](CC(=O)CCc2ccc(O)cc2)O1 (stereo not given in full),i,1.5
CC(C)OC(=O)NC(c1ccccc1)C(Cl)(Cl)Cl (stereo not given),i,-0.22
Cc1cccnc1Nc1nc(-c2ccc(F)cc2)cs1,-7.2*,-0.54*
C=CCNC(=S)NN(c1ccccc1)c1ccccc1,i,-1.2
COc1ccc(C(=O)Nc2ccccc2-c2ccccc2)cc1Cl,-6.2*,-1.9*
COc1ccccc1CNC(=O)COc1cc2c(c3oc(=O)cc(C)c13)CCC(C)(C)O2,i,0.46
CN(C(=O)CC1C(=O)NCCN1Cc1ccc(F)c(F)c1)C1CCCCC1 (stereo not given),i,1.8
CCn1cc(/C=N\NC(=O)c2ccc3c(c2)c(C)c(C)n3Cc2ccccc2)c(C)n1,i,0.52
COc1ccc(NC(=O)N2CCN(C(=O)C3CCCO3)CC2)cc1 (stereo not given),i,0.83
COc1ccc(NC(=O)c2cccc(NC(=O)c3ccccc3)c2)c(OC)c1,i,-2.2
O=C(c1cc2ccccc2o1)N1CCN(c2cccc(C(F)(F)F)c2)CC1,i,0.73
CCCOc1ccc(/C=N/Nc2cc(N3CCOCC3)ncn2)c(O)c1,i,1.1
CCC(C)c1ccccc1NC(=O)c1cc(C)no1 (stereo not given),i,-1.5
CC(C)c1ccc(NC(=S)NCCc2c[nH]c3ccccc23)cc1,i,0.27
CCCNC(=S)Nc1ccc(S(N)(=O)=O)cc1,i,0.45
CCCCCCN(C(=O)CCCCCN1C(=O)NC(c2ccc(-c3ccccc3)cc2)C(C(=O)OCc2ccccc2)=C1C)C(C(=O)NCCCC)c1ccccn1 (stereo not given),i,1.4
CCOC(=O)C1(CCc2ccccc2)CCN(C(=O)Cc2nonc2C)CC1,i,0.32
Cc1ccc(NC2c3ncccc3C(=O)N2Cc2ccc(F)cc2)cc1 (stereo not given),i,0.57
O=c1c2oc3ccccc3c2[nH]c(=S)n1-c1ccccc1,i,-0.29
CCSc1ncc(Cl)c(C(=O)Nc2ccccc2C)n1,i,0.14
O=c1c2cccnc2n(-c2ccccc2)n1Cc1c(Cl)cccc1Cl,i,2
O=C(CSc1ccccn1)Nc1ccc(NC(=O)CSc2ccccn2)cc1,i,-1.6
COc1ccc(OC)c(-c2nc(C(=O)NCCCN3CCOCC3)cc3c2[nH]c2ccccc23)c1,i,1.6
CCC(Sc1ncccc1Nc1ccccn1)C(=O)O (stereo not given),i,0.76
C=CCNC(=S)/N=c1/scc(C)n1C,i,0.25
COC(=O)C(NNc1ccccc1)(NC(=O)c1cccc(F)c1)C(F)(F)F (stereo not given),i,-0.07
C=CCNC(=O)/C(C#N)=C/c1c(C)nn(-c2ccc(Cl)cc2)c1Cl,i,-0.64
O=C(O)c1ccc(N/N=C/c2ccc(-c3ccccc3)cc2)cc1,i,-0.95
O=C(O)C(Cc1c[nH]c2ccccc12)NS(=O)(=O)c1ccc2ccccc2c1 (stereo not given),i,1.5
Cc1ccc(C(CCN)c2ccco2)cc1 (stereo not given),i,0.29
C/C(=N\NC(=O)Cc1ccc(Br)cc1)c1cccnc1,i,-1
Cc1ccsc1/C=N/n1cnc2sc(C)c(C)c2c1=O,i,-0.41

# Entries from the list above that have two or more sulfur atoms:
SMILES,KCNQ2 block,KCNQ2 block baseline
O=C(CN1C(=O)c2ccccc2S1(=O)=O)NCc1cccs1,i,0.52
CC(C)c1nnc(NC(=O)C2CCN(c3nc4ccccc4s3)CC2)s1,i,0.08
O=S(=O)(Nc1cc(Sc2cccc3cccnc23)c(O)c2ccccc12)c1ccc(F)cc1,i,0.61
CCOC(=O)c1cc(C#N)c(SCC(=O)c2cc(C#N)c(SC)nc2C)nc1C,i,0.92
O=C(COc1ccc([N+](=O)[O-])cc1)N(Cc1cccs1)C1CCS(=O)(=O)C1 (stereo not given),i,-1.6
CCS(=O)(=O)CCSc1nc(C)cc(C)c1C#N,i,-1.8
COc1ccccc1N1CCN(C(=O)CSc2ncnc3scc(-c4ccccc4)c23)CC1,i,1.9
COc1ccc(N2CCN(C(=O)CSc3ncnc4scc(-c5ccc(C)cc5)c34)CC2)cc1,-5.6*,-0.02*
CCCNC(=S)Nc1ccc(S(N)(=O)=O)cc1,i,0.45
O=C(CSc1ccccn1)Nc1ccc(NC(=O)CSc2ccccn2)cc1,i,-1.6
C=CCNC(=S)/N=c1/scc(C)n1C,i,0.25
Cc1ccsc1/C=N/n1cnc2sc(C)c(C)c2c1=O,i,-0.41

# Gathered by group, those above with a CF3 group
SMILES,KCNQ2 block,KCNQ2 block baseline
Cc1nn(-c2ncc(C(F)(F)F)cc2Cl)c(=O)n1-c1ccccc1,i,1.2
O=C(CSc1nnc2c(Cl)cc(C(F)(F)F)cn12)NCc1ccc(F)cc1,i,2.7
O=C(c1cc2ccccc2o1)N1CCN(c2cccc(C(F)(F)F)c2)CC1,i,0.73
COC(=O)C(NNc1ccccc1)(NC(=O)c1cccc(F)c1)C(F)(F)F (stereo not given),i,-0.07

# Going on with the list.
SMILES,KCNQ2 block,KCNQ2 block baseline
CC1CN(c2nc3c(c(=O)n(C)c(=O)n3C)n2Cc2c(Cl)cccc2Cl)CC(C)O1 (stereo not given),i,1.8
COc1ccc(C(=O)N2CC(=O)Nc3ccccc32)cc1S(=O)(=O)N1CCOCC1,i,0.23
CC(C)CCN1CCN(Cc2nc(-c3ccccc3)cs2)CC1CCO (stereo not given),i,0.53
Cc1cnc(C(=O)OCC(=O)NCCCc2ccccc2)cn1,i,1
